A1 inh: caspase 3/7 activation in MEF A1-2A-BIM cells, primary screen, A1 inhibitor project, cell-based, luminescence, HTS; 0.066% of 330,000 active; caspase activation, % (no concentration beside the values); Caspase-Glo 3/7 luminescence, 3 h; percent of clofoctol response, vehicle zero;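 active = over half of replicate activation scores above 10%, or exactly half above 10 with the replicate mean above 10; inconclusive = replicate mean below 10 yet half the replicates above 10; inactive = over half of replicates below 10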;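 also: wells of about 30 µL received 50 nL stock; many hits fall short of the cut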
rRNA inh HTS: reduced GFP signal of wild-type E. coli, primary screen, bacterial rRNA inhibitor project, GFP/RFP fluorescence, OD600, single point | E. coli WT GFP vs humanized-ribosome RFP mutants, 24 h; hits give low values; DMSO median 0, no signal -100 | GFP signal change (wild-type ribosome), % (no concentration beside the values) | 1.6% of 350,000 active | AID 720706, 2013;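 active = significant combined selectivity score with lowered wild-type GFP, culture density cut under 30%, mutant RFP and density less affected; inactive = any of these conditions unmet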; also: one replicate is shown; some compounds called inactive have numbers as strong as hits
MLL AF4-AF9 inh: inhibitors of AF4 peptide binding to AF9, primary screen, biochemical, AlphaScreen, biotin-AF4 peptide, FLAG-AF9, single point | Protein AF-9 (Homo sapiens), P42568 | inhibition, % at 10 µM | 0.47% of 350,000 active;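 active = every replicate reaching a set inhibition limit, whatever the replicate mean, cut at about 25% in these data; inconclusive = mean inhibition reaches that limit but some replicates miss it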;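 also: 0% = plate neutral control median and 100% = total signal loss; the record names both 10 and 1 µM as test concentration; the first replicate is given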
Target sequence (P42568 whole entry, looked up): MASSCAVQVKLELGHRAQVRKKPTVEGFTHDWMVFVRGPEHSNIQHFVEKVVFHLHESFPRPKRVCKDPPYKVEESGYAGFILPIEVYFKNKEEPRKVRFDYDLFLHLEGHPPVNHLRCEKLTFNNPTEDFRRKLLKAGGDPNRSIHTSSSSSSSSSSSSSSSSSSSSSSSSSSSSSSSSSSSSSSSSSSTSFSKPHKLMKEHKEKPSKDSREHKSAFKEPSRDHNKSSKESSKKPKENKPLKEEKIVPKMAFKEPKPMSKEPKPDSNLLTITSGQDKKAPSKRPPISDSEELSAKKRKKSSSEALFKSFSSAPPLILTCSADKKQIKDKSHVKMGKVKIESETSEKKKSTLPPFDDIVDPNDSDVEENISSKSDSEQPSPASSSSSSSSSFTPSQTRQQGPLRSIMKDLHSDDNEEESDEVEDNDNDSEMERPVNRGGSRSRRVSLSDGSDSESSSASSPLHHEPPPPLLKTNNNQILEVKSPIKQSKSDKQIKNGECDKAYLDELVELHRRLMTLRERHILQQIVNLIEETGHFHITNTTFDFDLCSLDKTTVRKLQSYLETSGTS
Calb FLC: C. albicans growth inhibition with fluconazole, primary screen, CaCi-2 strain, Alamar Blue fluorescence | C. albicans CaCi-2 (fluconazole-resistant clinical isolate) + fluconazole, 48 h | growth inhibition, % (no concentration beside the values) | 0.57% of 300,000 active;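 active = most replicates above 75%; inconclusive = exactly half above 75%; inactive = most below 75%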;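 also: all wells also contain fluconazole at 8 µg/ml as a sub-toxic cotreatment; 0% = median of DMSO wells and 100% = median of geldanamycin control wells; wells of about 8 µL received 7.5 nL stock; the first replicate is given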
T cruzi repl: inhibitors of intracellular T. cruzi growth, primary screen, luminescence, NIH3T3 host cells; T. cruzi beta-gal in NIH3T3, 90 h; 1.4% of 300,000 active; inhibition, % (test concentration not listed);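 active = mean inhibition across valid replicates above about 55%, limit read from the data; inconclusive = mean below that limit but half or more replicates reach it; inactive = mean below it, under half of replicates reach it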;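 also: signal also drops with host cell toxicity which is not excluded here; 0% = plate median of DMSO wells and 100% = zero luminescence signal; higher percent means less beta-gal luminescence so fewer parasites; stock transfer was 50 nL into about 50 µL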
RanGTP-Imp inh: inhibitors of RanGTP-importin-beta interaction, primary screen, biochemical, FRET, CFP-Ran, YFP-importin-beta, homogeneous; inhibition, % (concentration not given with the values); Ran GTPase (GTP-bound) - importin-beta complex; cell-free CFP-Ran/YFP-importin-beta FRET ratio; 1.1% of 300,000 active;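 active = most replicates above 15%; inconclusive = exactly half above 15%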;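 also: 0% = DMSO wells and 100% = Ran loaded with GDP instead of GTP; wells of about 40 µL received 100 nL stock; the first replicate is given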
Beta apoptosis: inhibitors of cytokine-induced beta cell apoptosis, primary screen, luminescence. INS-1E cytokine-induced death, ATP luminescence, 48 h; percent of positive-control rescue, neutral wells zero. protection from apoptosis, % (no concentration beside the values). 0.8% of 300,000 active. AID 435005, 2010;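 active = all replicates at 75% or more, or half of them and the mean; inconclusive = half reach 75% but not the mean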;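 also: 0% = cytokine-treated negative control wells and 100% = positive control rescue; higher means more ATP so stronger rescue from cytokine killing; wells of about 40 µL received 100 nL stock; the first replicate is given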
Vif A3G: inhibitors of Vif binding to APOBEC3G peptide, primary screen, biochemical, TR-FRET, GST-Vif 1-94, biotin-A3G peptide, dose response retest (AID 1117319) | inhibition, %; hits with a dose series show IC50 in µM | 0.57% of 260,000 active | TR-FRET GST-Vif / biotin-A3G peptide binding; higher % means a stronger effect; test concentration not given here; strong numbers were not always called active;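 active = above the screen mean plus three standard deviations and confirmed in dose response; inconclusive = results disagree or hit not tested in dose response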;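 also: Vif residues 1-94 fused to GST binding biotinylated APOBEC3G peptide 110-148; 0% = full assay without inhibitor and 100% = GST in place of GST-Vif; retest series ran down from 100 µM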
rRNA inh HTS OD600: also measured in rRNA inh HTS; calls as there; OD600 change, %; measured here: OD600 growth;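 optical density of the mix in the first replicate; 0 = DMSO median and -100 = no signal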
rRNA inh HTS RFP: also measured in rRNA inh HTS; calls as there; RFP signal change, %; measured here: RFP humanized mutant strains;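 first replicate; 0 = DMSO median and -100 = no signal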
* marks the source's active call; other numbers are inactive results; ? = inconclusive; / = no result given; & = joins results of further samples. Not all compounds are listed (hit frequency here may not be typical).

SMILES	A1 inh	rRNA inh HTS	rRNA inh HTS OD600	rRNA inh HTS RFP	MLL AF4-AF9 inh	Calb FLC	T cruzi repl	RanGTP-Imp inh	Beta apoptosis	Vif A3G
O=C(COc1ccccc1)c1cn(CC(=O)N2CCCC2)c2ccccc12	0.0	0	-4	2.1	1.2	-19	-2	2.2	-3	/
CC[C@@H]1[C@H]2CCCC(=O)N3CC[C@@H](C[C@H]1O)[C@@H]23	-0.1	15	19	1.7	4.2	-2	-1	-1.8	1	/
NNc1nc(-c2ccccc2)nc2sc3c(c12)CCCC3	-6.3	/	/	/	/	-2	1	-4.7	3	/
COc1ccc(CCn2c(O)c(C3=c4ccccc4=NC3=O)sc2=S)cc1OC	-0.4	13	7	1.9	2.1	-7	4	3.1	/	2%
CCOc1ccccc1N(CC(=O)NC1CCCCC1)C(=O)c1nsc(Cl)c1Cl	-1.8	-48	-72	-3.9	0.7	-14	8	-0.7	6	/
COC(=O)Cn1c(=NC(=O)C(C)C)sc2c(C)cc(C)cc21	0.0	4	3	-4.3	-6.2	-8	-3	-3.4	3	-7%
CCOCCCN(C)C1CCN(C(=O)c2oc3ccccc3c2NC(=O)Cc2ccc([N+](=O)[O-])cc2)CC1	0.8	15	18	4.1	13	1	-3	0.7	-6	/
O=C(CCc1ccccn1)N1CCCC(N2CCN(c3cccc(C(F)(F)F)c3)CC2)C1 (centres undefined)	0.1	3	3	-0.3	2.4	-7	20	-2.6	11	1%
Nc1nc(-c2ccccc2)cs1	-1.3	/	/	/	/	-34	-13	6.2	-1	-3%
Cc1ccccc1NC(=O)NCC1CCN(Cc2cccc(Cl)c2)CC1	0.6	11	2	0.2	-0.4	-15	58*	2.3	/	-4%
OCC[C@@H]1C[C@@H](O)[C@H](O)[C@]2(OCCCc3ccccc32)O1	0.2	4	18	5.3	1.3	-1	-21	1.8	-1	/
O=C(CN1C(=O)NC2(CCCC2)C1=O)NNC(=O)c1ccccc1	0.4	10	10	-3.0	0.8	/	-5	-0.1	-4	-8%
O=C(CCNC(=O)c1ccc(Br)cc1)NC1CCCCCC1	0.8	0	14	2.3	-0.6	/	/	/	1	-9%
CCCCn1c(/N=C/c2c[nH]c3ccccc23)nc2ccccc21	-0.2	/	/	/	/	18	7	2.2	7	-4%
COc1ccccc1Oc1ccccc1C(=O)O	0.0	7	9	-1.8	/	-16	-15	?	-2	2%
Cc1occc1C(=O)Nc1cc(S(=O)(=O)N2CCOCC2)ccc1OC(C)C	1.4	8	4	1.6	0.2	/	/	/	0	3%
CCOC(=O)N1CCN(Cc2nc3ccc([N+](=O)[O-])cc3c(=O)n2-c2ccc(OC)cc2OC)CC1	0.9	13	9	-0.1	2.9	-2	3	-2.2	8	/
CCCCN(C)C(=O)c1nc2ccccn2c1CN1CCN(C(=O)c2cccs2)CC1	1.3	13	3	1.4	-0.6	15	9	2.7	-3	1%
CN(CCCNC(=O)C1CCN(S(=O)(=O)c2cccc3nsnc23)CC1)Cc1ccccc1	0.4	/	/	/	/	-2	39	-3.7	-7	9%
O=C(C[n+]1ccccc1)N/N=C/c1ccccc1[N+](=O)[O-]	0.8	8	12	-0.1	-0.2	3	-11	-0.1	-9	11%
CCn1nc(C(=O)NNC(=O)COc2ccccc2C)c2ccccc2c1=O	0.9	4	6	-0.6	?	4	-13	?	1	16%
CC1CN(CCCCN2C(=O)c3ccccc3C2=O)CC(C)O1 (centres undefined)	-0.7	14	-8	-1.7	-0.3	-5	3	-0.1	-8	-2%
Cc1cc(C)cc(C(=O)NC(=S)Nc2ccc(Cc3ccncc3)cc2)c1	0.5	1	2	3.8	5.2	12	23	3.1	-5	-1%
N#C/C(=C\c1ccc(OCc2ccccc2)cc1)C(=O)Nc1ccc(C(=O)O)cc1	-0.3	-2	1	-1.3	-0.1	-6	3	-5.4	6	/
Cc1cccc(N2CC(C(=O)Nc3ccc(S(=O)(=O)Nc4nccs4)cc3)CC2=O)c1C (centres undefined)	-0.1	4	12	1.6	-0.4	2	-8	-0.5	-5	/
O=c1[nH]nc(Cc2ccccc2)c2ccccc12	0.2	/	/	/	/	20	-18	2.8	3	-8%
Cc1[nH]c(C)c2c(=O)[nH]ncc12	-2.5	11	5	45	-0.7	-2	-4	-1.8	9	2%
Cc1c(N2C(=O)CSC2c2ccco2)c(=O)n(-c2ccccc2)n1C (centres undefined)	-0.2	2	7	1.3	7.0	4	6	-6.1	3	-4%
CC(=O)N1CCOc2ccc(S(=O)(=O)Nc3ccc(C)cn3)cc21	-1.4	5	7	-0.1	-19	-19	2	1.1	-6	/
C[C@H](NC(=O)Nc1cccc(Br)c1)C(=O)O	-0.3	3	5	12	-4.1	-3	-8	2.8	-4	-7%
O=C(NCc1ccc2c(c1)OCO2)c1ccc(NC(=O)C2CCCO2)cc1 (centres undefined)	-0.2	/	/	/	/	6	-16	-2.8	2	-6%
COc1ccc(C(CNC(=O)C(CCSC)NC(=O)c2ccccc2Cl)N2CCCCC2)cc1 (centres undefined)	-0.8	8	8	-2.9	5.1	/	/	/	-2	-9%
COC(=O)C(Cc1ccccc1)NCC(=O)Nc1cccc(Cl)c1C (centres undefined)	?	-26	-41	-6.2	-1.5	-6	4	-1.9	-3	-7%
O=C(CN1C(=O)NC2(CCOc3ccccc32)C1=O)c1ccc(F)c(F)c1 (centres undefined)	-0.1	-10	-4	1.5	0.6	4	0	-1.1	-5	2%
COCCN1C(=O)C(=O)/C(=C(/O)c2cccc(OC)c2)C1c1ccc(C)o1 (centres undefined)	0.6	/	/	/	/	2	2	-3.7	-3	15%
Cc1ccc(C(=O)Nc2cccc(NC(=O)c3cccs3)c2)c(C)c1	-0.9	-29	-26	-4.0	0.3	10	24	-4.2	10	/

In a second layout: results already given.
smiles,A1 inh,rRNA inh HTS,rRNA inh HTS OD600,rRNA inh HTS RFP,MLL AF4-AF9 inh,Calb FLC,T cruzi repl,RanGTP-Imp inh,Beta apoptosis,Vif A3G
Cc1c(N2C(=O)CSC2c2ccco2)c(=O)n(-c2ccccc2)n1C (centres undefined),-0.2,2,7,1.3,7.0,4,6,-6.1,3,-4%
CC(=O)N1CCOc2ccc(S(=O)(=O)Nc3ccc(C)cn3)cc21,-1.4,5,7,-0.1,-19,-19,2,1.1,-6,/

Additional results
SMILES	A1 inh	rRNA inh HTS	rRNA inh HTS OD600	rRNA inh HTS RFP	MLL AF4-AF9 inh	Calb FLC	T cruzi repl	RanGTP-Imp inh	Beta apoptosis	Vif A3G
Cc1ccc(CNC(=O)C2CC(c3ccccc3[N+](=O)[O-])=NO2)cc1 (centres undefined)	-0.6	-8	-18	4.9	/	-10	-16	?	5	13%
COc1ccc(/C=N/NC(=O)c2cc(-c3ccccc3)nc3ccccc23)c(OC)c1	-1.6	13	21	11	-5.8	61	-3	9.1	2	-11%
Cc1ccc(S(=O)(=O)N2CCCN(S(=O)(=O)c3ccc(C(F)(F)F)cc3)CC2)cc1	0.3	/	/	/	/	0	-3	0.9	0	-5%&2%
CCC(c1nnnn1CCOC)N1CCN(Cc2ccccc2)CC1 (centres undefined)	-0.3	/	/	/	/	2	4	3.7	/	7%
N#Cc1ccc(C(=O)OCC(=O)Nc2cccc(S(=O)(=O)NC3=NCCC3)c2)cc1	-0.8	-2	-4	-0.8	5.3	/	/	/	-3	/
Cc1ccc(SCc2ccc(C(=O)Nc3nccs3)o2)cc1	-0.9	-13	-40	-0.1	-0.3	26	-6	1.7	-3	2%
COc1cccc(-c2nnc(SCC(=O)OC(C)C)n2N)c1	-0.1	/	/	/	/	4	-14	3.3	-3	71%
CC(CCc1ccccc1)NC(=O)CCC(=O)N1CCC(C(=O)O)CC1 (centres undefined)	-0.8	14	3	-3.0	1.7	19	3	6.9	-4	/
CCn1c(CNC(=O)c2ccccc2Br)nnc1SCC(=O)Nc1nncs1	-0.4	6	13	0.6	0.4	38	1	?	3	/
CCCCCCn1c(N2CCCC2)nc2c1c(=O)n(C)c(=O)n2C	-0.4	-5	4	-0.9	1.5	-6	32	3.2	5	-13%
O=C(Nc1ccc(Cl)cn1)c1ccccc1[N+](=O)[O-]	-0.1	-5	-4	-3.6	0.6	16	-41	2.0	-3	-2%
CCC1(C)C(Nc2c(C)cccc2C)=NC(=S)N1c1ccc(NC(C)=O)cc1 (centres undefined)	-0.6	/	/	/	/	0	6	1.4	-2	12%
Cc1ccc(N(C(C)C(=O)Nc2c(C)n(C)n(-c3ccccc3)c2=O)S(C)(=O)=O)cc1C (centres undefined)	-0.7	10	14	1.7	-0.3	-21	-7	-4.1	-3	2%
O=C(CCC(=O)OCC(=O)c1ccc(C(F)(F)F)cc1)OCC(=O)c1ccc(C(F)(F)F)cc1	-0.6	18	17	6.5	-0.9	0	-11	4.5	-3	-5%
FC(F)(F)c1cccc(Cn2nnnc2-c2ccc(Cl)cc2)c1	-0.5	/	/	/	/	?	1	-0.4	6	2%
CCn1cc(CN2CCc3c([nH]c4ccccc34)C2c2ccc(F)c(OC)c2)c(C)n1 (centres undefined)	0.4	-5	-7	-0.5	12	5	21	-3.6	2	8%
O=C1CC(c2ccccc2)SC(N(c2ccccc2)c2ccccc2)=N1 (centres undefined)	0.6	-2	-6	2.5	-4.1	21	18	-2.5	4	/
CCc1ccc2[nH]c(=O)c(CN(CCCN3CCOCC3)C(=O)Nc3ccccc3)cc2c1	0.0	/	/	/	/	20	-2	-4.5	-1	-4%
CCOC(=O)C(=O)Nc1cccc(C(=O)OCC)c1	0.0	11	19	-1.6	-6.3	?	-5	-1.0	-5	-2%
O=C(c1cccc(Cl)c1)N1CCN(Cc2ccccc2F)CC1	-0.2	/	/	/	/	21	-1	0.8	0	3%
CC(C)CCNC(=O)[C@@H](NC(=O)c1c(F)cccc1F)C(C)C	0.5	/	/	/	/	-41	1	0.4	-4	-1%
O=C(NC(=S)Nc1ncccn1)c1ccccc1Br	-0.1	-2	5	-3.8	-2.5	-3	-13	2.7	0	2%
CC(NC(=O)[C@H](C)NC(=O)[C@@H]1CSC2c3ccccc3C(=O)N21)c1ccccc1 (some centres undefined)	-2.4	1	2	-5.9	2.0	-4	-9	1.3	-3	-2%
CC(=O)Nc1ccc(S(=O)(=O)N(C)CC(=O)OCC(=O)N(C)c2ccccc2)cc1	-0.6	8	9	-0.8	-2.0	1	-24	5.4	-6	/
Cc1ccc(S(=O)(=O)N(C)CC(=O)Oc2ccc(-c3nnco3)cc2)cc1	-0.7	2	0	0.6	-9.0	0	-5	0.4	/	-2%
